Screening results: PubChem BioAssay, several laboratories
E coli growth = E. coli growth inhibition; hit rate 0.21% among 330,000; Escherichia coli growth, OD600, 23 h; active compounds read low; AID 1053175; OD600 absorbance (test concentration not listed);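 active means OD600 absorbance below the run mean of sample wells minus 3.6 SD, in any replicate, cut at about 0.56 in these data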;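 further: stock transfer was 300 nL into about 60 µL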
ALR inh = inhibitors of human sulfhydryl oxidase ALR | P55789 | purified ALR, DTT oxidation, H2O2 HRP-luminol luminescence | inhibition, % (test concentration not listed) | hit rate 3.8% among 290,000;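 active means mean and each replicate at 75% or more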;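 further: stock transfer was 7.5 nL into about 7.5 µL; 0% = neutral wells and 100% = wells with inactivated enzyme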
Target sequence (P55789 whole entry, looked up): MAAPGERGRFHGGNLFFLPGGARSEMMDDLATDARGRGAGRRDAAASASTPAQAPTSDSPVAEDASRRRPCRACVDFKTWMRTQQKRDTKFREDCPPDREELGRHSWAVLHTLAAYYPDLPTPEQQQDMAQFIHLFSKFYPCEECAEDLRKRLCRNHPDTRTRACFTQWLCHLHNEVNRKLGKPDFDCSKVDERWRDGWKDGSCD
rRNA inh HTS = inhibits bacterial ribosomal RNA function over humanized ribosomes | E. coli WT GFP vs humanized-ribosome RFP mutants, fluorescence, 24 h; active compounds read low; DMSO median 0, no signal -100 | GFP signal change (wild-type ribosome), % (test concentration not listed) | hit rate 1.6% among 350,000 | AID 720706;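 active means significant combined selectivity score with lowered wild-type GFP, culture density cut under 30%, mutant RFP and density less affected; inactive means any of these conditions unmet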; further: one replicate is shown; some compounds called inactive have numbers as strong as hits
FGF22 binding = FGF22 (human) thermal shift binding; recombinant FGF22 thermal shift, SYPRO orange fluorescence; percent of sucrose octasulfate shift, DMSO zero; Q9HCT0; calls only at 9.99 µM; hit rate 1.5% among 340,000;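 active means melting point raised past a set limit in the mean and every replicate; three in four hits are not shown here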
Target sequence (Q9HCT0 whole entry, looked up): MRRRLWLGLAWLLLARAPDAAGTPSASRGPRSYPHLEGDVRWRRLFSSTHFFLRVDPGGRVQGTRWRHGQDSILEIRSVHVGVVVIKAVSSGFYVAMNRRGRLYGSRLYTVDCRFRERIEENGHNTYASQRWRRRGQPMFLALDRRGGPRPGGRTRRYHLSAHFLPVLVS
HNF4A DNA FP = change in binding of human HNF4 alpha to DNA. AID 1224865. activity change, % at 10 µM. hit rate 0.3% among 360,000. HNF4a-FITC DNA binding, fluorescence polarization, 1 h; in the data active means activity change above about 30%, passing the limit was not always enough;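 further: controls were the assay level and a saturating level of protein; the project sought stronger binding though the title names inhibitors; some compounds called inactive have numbers as strong as hits; positive values seem to mean higher polarization but the record does not say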
Target sequence (P41235 whole entry, looked up): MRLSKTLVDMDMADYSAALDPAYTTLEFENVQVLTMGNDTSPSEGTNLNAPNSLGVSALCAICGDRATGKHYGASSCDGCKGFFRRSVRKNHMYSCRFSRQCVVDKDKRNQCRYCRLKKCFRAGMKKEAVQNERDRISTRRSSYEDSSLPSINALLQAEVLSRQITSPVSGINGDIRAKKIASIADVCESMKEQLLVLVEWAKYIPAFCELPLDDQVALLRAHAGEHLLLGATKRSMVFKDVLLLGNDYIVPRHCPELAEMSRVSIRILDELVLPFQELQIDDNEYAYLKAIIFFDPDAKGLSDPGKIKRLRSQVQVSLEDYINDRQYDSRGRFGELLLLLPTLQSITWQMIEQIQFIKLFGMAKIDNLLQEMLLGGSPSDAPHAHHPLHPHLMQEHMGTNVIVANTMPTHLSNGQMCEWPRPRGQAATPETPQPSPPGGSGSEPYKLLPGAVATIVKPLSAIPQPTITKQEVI
UCH37 inh = human UCH37 deubiquitinating enzyme inhibition; Q9Y5K5; purified proteasome/UCH37, Ub-AMC cleavage fluorescence; inhibition, % (no concentration beside the values); hit rate 0.33% among 330,000; AID 588478;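 active means mean of two replicates above 20%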;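 further: 0% = compound-free wells with enzyme and 100% = wells lacking proteasome; stock transfer was 100 nL into about 20 µL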
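Material: Human UCH37 enzyme supplied as purified proteasome complex | Schedule: 30 min compound-proteasome preincubation then 25 min substrate reaction, room temperature | Detection: AMC fluorescence from Ub-AMC cleavage, excitation 355 nm, emission 460 nm | Benchmarks: Wells without proteasome as full block, compound-free enzyme plus substrate as uninhibited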
B2AR ag = agonists of human beta-2 adrenergic receptor inducing internalization | P07550 | Am2.2-beta2AR cells, FAP receptor internalization, flow cytometry; reference of the scale not given here | response, % (no concentration beside the values) | hit rate 0.43% among 340,000 | AID 504454;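 active means response above a set limit, near 3 SD of response in nonfluorescent compounds, cut at about 42% in these data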;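 further: stock transfer was 100 nL into about 11 µL; a reference agonist was the positive control; negative values mostly stem from fluorescent compounds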
rRNA inh HTS OD600 = second read-out of rRNA inh HTS, no call of its own (marks repeat the call); OD600 change, %; measured here: OD600 growth;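 optical density of the mix in the first replicate; 0 = DMSO median and -100 = no signal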
rRNA inh HTS RFP = further read-out of rRNA inh HTS, marked with its call; RFP signal change, %; measured here: RFP humanized mutant strains;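 first replicate; 0 = DMSO median and -100 = no signal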
Active calls of the source: *; i = inactive; . = not tested or not shown; & = joins results of further samples.

Below each compound – E coli growth | ALR inh | rRNA inh HTS | rRNA inh HTS OD600 | rRNA inh HTS RFP | FGF22 binding | HNF4A DNA FP | UCH37 inh | B2AR ag
N#CC1=C2SCN(Cc3ccco3)CN2C(=O)CC1c1ccccc1F (stereo unspecified)
    0.77 | 3 | . | . | . | . | 2.8 | 5.8 | 1
CC(C)CCN1NC2(CCCC(C)C2)NC1=S (stereo unspecified)
    0.67 | -10 | 5 | -1 | -0.5 | i | 0.4 | -0.7 | -2
CCCn1c(NC(=O)c2ccc(Br)cc2)nc2ccccc21
    0.75 | -4 | . | . | . | . | 0.0 | -166 | -2
CCc1nc2ccc(C(=O)NCC3CCCCC3)cn2c1N(C)Cc1ccc(OC)cc1
    . | . | -1 | -23 | -2.5 | i | 1.6 | . | .
O=C(NC(Cc1c[nH]c2ccccc12)C(=O)Nc1ccc(OC(F)(F)F)cc1)c1cccs1 (stereo unspecified)
    0.7 | 3 | -14 | -11 | -2.1 | i | -1.1 | 1.2 | 5
O=C1CCCN1CCCNc1nc2c(S(=O)(=O)c3ccccc3)nnn2c2ccc(Cl)cc12
    0.67 | -11 | -3 | -6 | 2.0 | i | 4.5 | -81 | -10
CNC(=O)NC(=O)COc1ccc2oc3c(c2c1)CCCC3
    0.65 | 1 | 6 | 18 | 2.3 | i | 1.8 | 0.8 | -19
CN(C)CCCNC(=S)N(CCCN(C)C)Cc1cc2cc3c(cc2[nH]c1=O)OCO3
    0.7 | -4 | 22 | 13 | 1.4 | i | 1.8 | -143 | 7
O=C1CCc2cc(S(=O)(=O)NCCC(=O)NC3CCN(Cc4ccccc4)CC3)ccc2N1
    0.67 | 7 | . | . | . | . | 4.0 | 2.5 | -7
COc1ccccc1NC(=O)C1=C(C)NC(=O)NC1c1cc(C)cs1 (stereo unspecified)
    0.7 | -2 | . | . | . | . | -5.7 | 1.3 | -6

More results.
Below each compound – E coli growth | ALR inh | rRNA inh HTS | rRNA inh HTS OD600 | rRNA inh HTS RFP | FGF22 binding | HNF4A DNA FP | UCH37 inh | B2AR ag
Cn1cccc1/C=N/NC(=O)c1cc(-c2cccs2)nc2ccccc12
    . | 4 | 7 | -3 | 1.7 | i | -0.5 | . | -15
Cc1ccc(-c2nn(-c3ccccc3)cc2C(=O)OCC(=O)Nc2ncc(Cl)cc2Cl)cc1
    0.71 | -3 | 2 | -8 | 14 | i | 0.1 | -2.7 | 4
CCC(C)c1ccc(S(=O)(=O)N2CCN(CC(O)CN3CCOCC3)CC2)cc1 (stereo unspecified)
    0.71 | 3 | 4 | 5 | -3.8 | i | 4.2 | -0.3 | 4
O=C(CN(C(=O)CCC(=O)Nc1nccs1)c1ccc(F)cc1)NCc1ccc2c(c1)OCO2
    0.71 | -6 | 7 | 16 | -0.2 | i | 1.5 | 1.1 | -2
Cc1ccc2nc(-c3ccncc3)c(Nc3ccccc3)n2c1
    0.68 | 3 | 12 | 16 | 3.7 | i | 0.6 | -28 | -2
Cc1ccc(S(=O)(=O)N2C[C@H]3[C@H]4C(=O)N(C5CCCCC5)C(=O)[C@H]4CC(=O)[C@H]3[C@@H]2c2ccccc2Cl)cc1
    . | . | 5 | 4 | 0.8 | i | -0.3 | . | .
COc1ccccc1S(=O)(=O)CC(O)COc1ccc(F)cc1Cl (stereo unspecified)
    0.67 | 4 | -17 | -12 | -0.2 | i | 2.0 | 4.8 | 8
COc1cccc(C2C(C(=O)/C=C/c3ccco3)=C(O)C(=O)N2CCN2CCOCC2)c1 (stereo unspecified)
    0.73 | -26 | 4 | 8 | 3.7 | i | 0.5 | 9.8 | 6
COc1ccc(C(=O)NCC(=O)NCC(=O)OCC(=O)c2cccs2)cc1
    . | -5 | . | . | . | . | -0.5 | 1.2 | -2
O=C1CS/C(=N/N=C2C3CC4CC(C3)CC2C4)N1
    0.68 | -1 | . | . | . | . | -1.4 | 0.1 | -10

Other records
Below each compound – E coli growth | ALR inh | rRNA inh HTS | rRNA inh HTS OD600 | rRNA inh HTS RFP | FGF22 binding | HNF4A DNA FP | UCH37 inh | B2AR ag
Cn1cc(C(=O)Nc2ccccn2)c(=O)c2ccccc21
    0.65 | . | 7 | 10 | 2.2 | i | 1.6 | -0.3 | -19
COc1ccc(-c2ccc3c(c2)c(-c2cccs2)c(-c2cc(OC)cc(OC)c2)n3C)cc1
    0.76 | 2 | -4 | -2 | 5.4 | i | -1.3 | -28 | 4
CCC(C)[C@@H](N)C(=O)N/N=C/c1ccc2ncccc2c1 (stereo partly specified)
    . | -17 | 13 | 2 | -4.9 | i | 2.0 | . | -5
COc1ccc(OC)c(/C=N/NC(=O)CC2C(=O)NN=C2C)c1 (stereo unspecified)
    . | 7 | . | . | . | . | -0.6 | . | -3
COC(=O)c1cnc(SCc2ccc([N+](=O)[O-])cc2)n1C
    0.67 | -5 | 4 | -5 | -4.1 | i | 2.7 | 3.4 | 11
CN(C)c1ncc(C(=O)O)cn1
    0.66 | -1 | 23 | 11 | 6.8 | . | 2.4 | -0.3 | -2
CC1=C(C(=O)Nc2cccc(C(=O)NCC(C)c3ccccc3)c2)SCCO1 (stereo unspecified)
    . | . | -9 | -12 | -0.4 | i | -3.0 | . | .
COc1cccc(OC)c1C(=O)NC(=S)NCc1ccco1
    0.69 | -1 | 10 | 5 | -0.7 | i | -4.4 | 3.5 | -6
CCC(=O)Oc1oc(-c2ccccc2)nc1C=Nc1ccc(C)cc1
    0.66 | 6 | 7 | 13 | 2.0 | i | 1.6 | 1.2 | 10
Cc1ccnc(NC(=O)CS(=O)(=O)Cc2ccccc2)c1
    0.74 | -12 | . | . | . | . | 1.8 | -4.4 | 0

The last 4 compounds of the section above open the next one.
Below each compound – E coli growth | ALR inh | rRNA inh HTS | rRNA inh HTS OD600 | rRNA inh HTS RFP | FGF22 binding | HNF4A DNA FP | UCH37 inh | B2AR ag
CC1=C(C(=O)Nc2cccc(C(=O)NCC(C)c3ccccc3)c2)SCCO1 (stereo unspecified)
    . | . | -9 | -12 | -0.4 | i | -3.0 | . | .
COc1cccc(OC)c1C(=O)NC(=S)NCc1ccco1
    0.69 | -1 | 10 | 5 | -0.7 | i | -4.4 | 3.5 | -6
CCC(=O)Oc1oc(-c2ccccc2)nc1C=Nc1ccc(C)cc1
    0.66 | 6 | 7 | 13 | 2.0 | i | 1.6 | 1.2 | 10
Cc1ccnc(NC(=O)CS(=O)(=O)Cc2ccccc2)c1
    0.74 | -12 | . | . | . | . | 1.8 | -4.4 | 0
COC(=O)Cn1c(O)c(N=NC(=O)CNC(=O)c2ccc3c(c2)OCCO3)c2ccccc21
    0.69 | -1 | 0 | 2 | 0.1 | i | -4.2 | 4.1 | -10
COc1ccc(CCNC(=O)c2ccc(CN3CCOCC3)cc2)cc1
    0.67 | -8 | . | . | . | . | -0.8 | -1.1 | 4
CN(c1ccccc1)S(=O)(=O)c1ccc2c(c1)OCCO2
    0.66 | . | -10 | -10 | 6.3 | i | -2.1 | 2.8 | -1
COC(=O)Cn1c(=NC(=O)CSCC(=O)Nc2cc(C)on2)sc2ccccc21
    0.76 | -3 | 1 | -1 | -7.0 | i | -0.9 | 2.8 | -2
Cc1ccc(N(CC(=O)N2CCN(c3ccccc3F)CC2)S(=O)(=O)c2c(C)noc2C)cc1
    0.66 | -3 | 10 | 2 | -1.5 | i | -0.2 | 5.4 | 2
CCc1ccc2nc(NC(=O)c3cc(C)on3)sc2c1
    0.67 | 6 | . | . | . | . | -1.7 | -5.5 | -4
Cc1ccc(C(=O)NC(=S)Nc2ccc(N3CCOCC3)cc2)cc1
    0.73 | 27 | 2 | 3 | -0.7 | i | -2.8 | 2.9 | 2
CCC(C)(C(=O)NC1CCCCC1)N(C)C(=O)c1ccc2c(c1)OCO2 (stereo unspecified)
    0.69 | -15 | . | . | . | . | -0.8 | -2.3 | 6
COc1cccc(S(=O)(=O)N(C)C[C@H]2OCc3cn(nn3)CCCC(=O)N([C@@H](C)CO)C[C@@H]2C)c1
    . | . | -1&2 | -3&17 | 0.7&0.5 | i | 2.1 | . | .
Nn1c(COc2ccccc2F)nnc1SCC(=O)NC1CCCCC1
    0.63 | -5 | 9 | 10 | -0.2 | i | -2.7 | 1.1 | -4

Other compounds follow:
Below each compound – E coli growth | ALR inh | rRNA inh HTS | rRNA inh HTS OD600 | rRNA inh HTS RFP | FGF22 binding | HNF4A DNA FP | UCH37 inh | B2AR ag
O=C(/C=C/c1ccc(OC(F)F)cc1)Nc1cccc(S(=O)(=O)N2CCOCC2)c1
    0.77 | -5 | -13 | -9 | -1.7 | i | -4.9 | 2.1 | 8
Cn1c(N)c(N2CCCCC2)c(=O)n(CC(=O)Nc2ccc(Cl)c(Cl)c2)c1=O
    0.68 | 5 | . | . | . | . | -0.6 | 2.6 | 15
CC(C)c1ccc(N(CC(=O)NCc2ccco2)C(=O)CCC(=O)Nc2nccs2)cc1
    0.71 | 2 | 2 | 6 | -1.7 | i | -1.9 | 7.3 | -2
COc1cc(S(=O)(=O)N2CCOCC2)ccc1NC(=O)COC(=O)c1cc(OC)c(OC)c(OC)c1
    0.7 | -4 | 0 | 4 | -2.7 | i | 3.3 | 1.2 | 0
COc1ccc(OC)c(NC(=O)COC(=O)C2CCN(C(=O)c3ccc(Cl)cc3)CC2)c1
    0.71 | -4 | -27* | -14* | 3.8* | i | -2.1 | 4.6 | 7
CC1(C(=O)Nc2ccc3ccccc3c2)CCC(=O)N1C1CCN(Cc2ccccc2)CC1 (stereo unspecified)
    . | . | 6 | -6 | 9.5 | i | -3.6 | . | .
CC(=O)CC(=O)Nc1ccc(Nc2ccccc2)cc1
    0.63 | 99* | . | . | . | . | -0.7 | 3.5 | 8
N/C(=N\OC(=O)CCC1CCCCC1)c1cccc([N+](=O)[O-])c1
    . | 0 | . | . | . | . | 3.0 | . | 4
CCOC(=O)c1c(CC(C)C)csc1NC(=O)C(C)C
    0.8 | -31 | . | . | . | . | 5.3 | 5.7 | 2
COCCNC(=O)CS(=O)Cc1nc(-c2ccc(Cl)cc2)oc1C (stereo unspecified)
    0.73 | . | -2 | -6 | -0.9 | i | 3.2 | 0.0 | -5

Continued:
Below each compound – E coli growth | ALR inh | rRNA inh HTS | rRNA inh HTS OD600 | rRNA inh HTS RFP | FGF22 binding | HNF4A DNA FP | UCH37 inh | B2AR ag
COc1ccc(/C=N/n2c(-c3n[nH]c4c3CCC4)n[nH]c2=S)c(OC)c1OC
    . | . | 7 | 7 | 3.8 | i | -3.1 | . | 4
Cc1ccc(S(=O)(=O)CCC(=O)OCC(=O)c2c[nH]c3ccccc23)cc1
    0.71 | 8 | 9 | 11 | 0.6 | i | 1.9 | 1.5 | 2
O=C(NC1(C(F)(F)F)NC(=O)N(Cc2ccco2)C1=O)c1cccnc1 (stereo unspecified)
    0.69 | 0 | . | . | . | . | 4.5 | 3.6 | -4
CCCNC(=O)CS(=O)(=O)Cc1nc(-c2cccc(OC)c2)oc1C
    0.74 | 98* | 1 | -7 | -3.5 | i | -2.5 | 0.9 | 5
Cn1c(=O)c2c(ncn2CC(O)CNc2cccc(Cl)c2)n(C)c1=O (stereo unspecified)
    0.7 | 14 | -9 | -6 | 0.0 | i | -0.1 | 0.0 | 2
Nn1cnnc1SC1CCCCC1NS(=O)(=O)c1ccccc1 (stereo unspecified)
    0.75 | . | . | . | . | . | 1.0 | 3.0 | 8
COc1ccccc1C(=O)NCC(=O)NCc1cc(=O)n(C)c(=O)n1C
    0.7 | -1 | 16 | 12 | 2.2 | i | -1.5 | -2.5 | 2
CC1CCCCN1CCCNC(=O)Cn1ncc2c([nH]c3ccccc32)c1=O (stereo unspecified)
    0.68 | -6 | 14 | 21 | 1.7 | i | -2.9 | 1.8 | -1
Cn1nnc(NC(=O)c2cccs2)n1
    0.68 | 6 | 20 | 16 | 0.9 | i | -2.1 | 2.1 | -2

An excerpt, so the mix of outcomes need not match the whole.
